# HIV Env fusion: blocks HIV Env-driven cell-cell fusion; HeLa-JRFL Env/CEM21 cell fusion, luciferase; inhibition, % at 12.3 µM; 360,000 tested, 1.1% active; AID 651610;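 active means mean replicate inhibition score of at least 50 and every replicate individually at or above 50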;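 further: 0% = plate neutral controls and 100% = maraviroc near 300 nM; one replicate is shown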
# * = called active by the depositor; [ ] = dose if it differs, or a comment. These rows are one share of the data, so the mix of outcomes need not match the whole.
HIV Env fusion,canonical_smiles
23[16.7 µM],C[C@H]1CN([C@@H](C)CO)C(=O)c2ccccc2-c2ccccc2CO[C@H]1CN(C)C(=O)[C@@H](Cc1ccccc1)N(C)C
15[16.7 µM],COc1ccc(NC(=O)N(C)C[C@H]2Oc3ccc(NS(=O)(=O)c4ccc(F)cc4)cc3CC(=O)N([C@H](C)CO)C[C@H]2C)cc1
13[16.7 µM],CCOC(=O)[C@@H]1[C@@H]2C=C[C@]3(O2)[C@H](C(=O)NCc2ccccc2)N(CCCCCCO)C(=O)[C@@H]13
12[16.7 µM],CCC(=O)N1C[C@H](C)[C@@H](OC)CN(C)C(=O)c2ccc(NC(=O)c3ccccc3)cc2OC[C@@H]1C
26[16.7 µM],COc1cccc(S(=O)(=O)Nc2ccc3c(c2)OC[C@H](C)N(Cc2ccccc2F)C[C@@H](C)[C@H](OC)CN(C)C3=O)c1
-15[16.7 µM],C[C@H](CO)N1C[C@H](C)[C@@H](CN(C)C)Oc2cc(C#Cc3ccccn3)ccc2S1(=O)=O
-24[16.7 µM],CNC[C@@H]1OCCCC[C@H](C)Oc2ccc(NC(=O)Nc3ccc(C(F)(F)F)cc3)cc2C(=O)N([C@@H](C)CO)C[C@H]1C
4[16.7 µM],COc1ccc(CN(C)C[C@@H]2Oc3ccc(NC(=O)Cc4ccccc4)cc3CC(=O)N([C@H](C)CO)C[C@H]2C)cc1

HIV Env fusion,canonical_smiles
-5[16.7 µM],CCC(=O)N1C[C@@H](C)[C@@H](OC)CN(C)C(=O)c2ccc(NC(=O)Nc3ccc(Cl)cc3)cc2OC[C@H]1C
-1[16.7 µM],C[C@@H]1CN([C@@H](C)CO)C(=O)c2cc(NS(C)(=O)=O)ccc2O[C@@H](C)CCCCO[C@H]1CN(C)Cc1ccccc1
-98[16.7 µM],O=C1C=CCCN1C(=O)/C=C/c1ccccc1Cl
9[16.7 µM],O=C(C[C@H]1CC[C@H]2[C@@H](COC[C@@H](O)CN2C(=O)c2ccc(F)cc2)O1)N1CCCCC1
-79,COC(=O)C1=C(C)N(C)C(=NCc2ccccc2C(F)(F)F)NC1c1ccc(F)cc1 (stereo not drawn)
21,CCN1CCN(Cc2ccc(NC(=O)c3cccc(-c4ccc5nc(NC(=O)C6CC6)sc5n4)c3)cc2C(F)(F)F)CC1
-5[16.7 µM],CNC[C@@H]1Oc2c(NS(=O)(=O)c3ccc(OC)cc3)cccc2C(=O)N([C@H](C)CO)C[C@H]1C
-32,COC(=O)C1=C(C)N(Cc2ccccc2C(F)(F)F)C(=NCc2ccc3c(c2)OCO3)NC1CCc1ccccc1 (stereo not drawn)

HIV Env fusion,canonical_smiles
-1,COc1ccc(C2CC(=O)C(c3ccccc3)=CN2Cc2ccccc2)cc1 (stereo not drawn)
-43[16.7 µM],C[C@H](NC(=O)C[C@@H]1CC[C@H](NC(=O)c2cccnc2)[C@@H](CO)O1)c1ccccc1
-8,COC(=O)C1=C(C)N(C)C(=NCc2ccc(OC)cc2)NC1c1cccc(F)c1 (stereo not drawn)
-1[16.7 µM],C[C@@H]1CCCCO[C@@H](CN(C)C(=O)CCCN(C)C)[C@@H](C)CN([C@H](C)CO)C(=O)c2cc(NC(=O)CCCN(C)C)ccc2O1
-15[16.7 µM],CN1C(=O)c2cc(NS(C)(=O)=O)ccc2OC[C@@H]2O[C@@H](CC(=O)NC3CCCCC3)CC[C@@H]21
30[16.7 µM],CO[C@H]1CN(C)C(=O)c2cc(NC(=O)c3ccc(Oc4ccccc4)cc3)ccc2OC[C@@H](C)NC[C@@H]1C
9[16.7 µM],C[C@@H]1CN([C@H](C)CO)C(=O)Cc2cc(NC(=O)CCC(F)(F)F)ccc2O[C@@H]1CN(C)S(C)(=O)=O
-1[16.7 µM],O=C(C[C@@H]1C[C@@H]2c3cc(NC(=O)c4cccnc4)ccc3O[C@@H]2[C@@H](CO)O1)NCCN1CCCCC1

HIV Env fusion,canonical_smiles
-9[16.7 µM],CCCC(=O)Nc1ccc2c(c1)OC[C@@H](C)N(Cc1ccccn1)C[C@H](C)[C@@H](OC)CN(C)C2=O
8,COC(=O)[C@]12C[C@H](CC(=O)NCC34CC5CC(CC(C5)C3)C4)C(=O)N(Cc3ccccc3)C1=C[C@H](C1CCCC1)O[C@@H]2C
0[16.7 µM],CN1CCN(C(=O)c2cc3c(c(-c4cccc(-c5ccc(C#N)cc5)c4)n2)[C@@H](CCO)N([S@](=O)C(C)(C)C)C3)CC1
4[16.7 µM],CCCN1C[C@H](C)[C@H](OC)CN(C)C(=O)c2cc(NS(C)(=O)=O)ccc2OC[C@H]1C
-7[16.7 µM],CC(C)NC(=O)Nc1ccc2c(c1)C(=O)N([C@H](C)CO)C[C@H](C)[C@@H](CN(C)C(=O)CCC(F)(F)F)OCCCC[C@H](C)O2
38[16.7 µM],Cc1ccc(S(=O)(=O)Nc2cccc3c2O[C@H](CN(C)Cc2ccc(Cl)c(Cl)c2)[C@@H](C)CN([C@@H](C)CO)C3=O)cc1
-2[16.7 µM],COc1cccc(C(=O)Nc2ccc3c(c2)C(=O)N(C)C[C@@H](OC)[C@H](C)CN[C@H](C)CO3)c1
-2,C=CC[C@]12C[C@@]3(O[C@H](c4ccc(C(F)(F)F)cc4)N=C3C[C@H](c3ccc(OC)cc3)[C@H]1C)N(C1CCN(Cc3ccccc3)CC1)C2=O

HIV Env fusion,canonical_smiles
0[16.7 µM],COc1ccc(NC(=O)N(C)C[C@H]2Oc3c(NC(=O)c4cc(C)nn4C)cccc3C(=O)N([C@@H](C)CO)C[C@@H]2C)cc1
-1[16.7 µM],O=C(NCc1ccncn1)[C@@H]1[C@@H](CO)[C@@H]2Cn3c(cccc3=O)[C@H]1N2CC1CC1
1[16.7 µM],CNC(=O)C[C@H]1CC[C@H]2[C@@H](COC[C@@H](O)CN2S(=O)(=O)c2cccc(Cl)c2)O1
1[16.7 µM],COc1cccc(NC(=O)N[C@H]2CC[C@H](CC(=O)N3CCCCC3)O[C@H]2CO)c1
-29,NC(=O)c1ncn([C@@H]2O[C@H](C(=O)Nc3ccc(Oc4ccccc4)nc3)[C@@H](O)[C@H]2O)n1
23[16.7 µM],CC(C)COC(=O)N(C)C[C@@H]1OCc2ccccc2-c2c(n(C)c3ccccc23)C(=O)N([C@@H](C)CO)C[C@H]1C
-3[16.7 µM],CO[C@H]1CN(C)C(=O)c2cc(NS(C)(=O)=O)ccc2OC[C@@H](C)N(C(=O)NC(C)C)C[C@H]1C
-6[16.7 µM],CN1CCN(C(=O)C[C@H]2CC[C@@H]3[C@H](COC[C@@H](O)CN3C(=O)Nc3ccc(F)cc3)O2)CC1

HIV Env fusion,canonical_smiles
11[16.7 µM],C[C@@H]1CN([C@@H](C)CO)C(=O)c2cccc(NC(=O)Nc3ccc(C(F)(F)F)cc3)c2O[C@@H]1CN(C)S(=O)(=O)c1ccccc1
-3[16.7 µM],COc1ccc2c3c(n(C)c2c1)[C@@H](CO)N(C(=O)NC(C)C)CC31CN(C(=O)NC(C)C)C1
5[16.7 µM],CN1[C@@H]2c3ccc(-c4ccccc4F)c(=O)n3C[C@@H]2[C@@H](CO)[C@@H]1C(=O)NCC(F)(F)F
17,CN[C@H]1C[C@H]2c3[nH]c4c(-c5ccccc5)cccc4c3CCN2C[C@H]1[C@H](C)O
-12[16.7 µM],CN1C(=O)c2cc(NS(=O)(=O)c3cccc(F)c3)ccc2OC[C@@H]2O[C@@H](CC(=O)NCCN3CCCCC3)CC[C@H]21
7[16.7 µM],O=C(C[C@H]1CC[C@H]2[C@@H](COC[C@@H](O)CN2C(=O)c2ccncc2)O1)NC1CCC1
-8,COC(=O)[C@]12C[C@H](CC(=O)NCC3CCCCC3)C(=O)N(Cc3ccccc3)C1=C[C@H](C1CCCC1)O[C@@H]2C
7,CC(C)C[C@@H]1COc2cc(N3CCOCC3)ccc2S(=O)(=O)N1

HIV Env fusion,canonical_smiles
-14[16.7 µM],CCC(=O)N1CCC2(CC1)CN(C(=O)Nc1ccc(F)cc1)[C@@H](CO)c1c2c2ccc(OC)cc2n1C
3[16.7 µM],CCOC(=O)c1ccc(NC(=O)O[C@H]2[C@H](OC(=O)Nc3ccc4c(c3)OCO4)[C@@H](OC(=O)Nc3ccc4c(c3)OCO4)[C@@H](OC)O[C@@H]2CO)cc1
17[16.7 µM],CC=Cc1ccc2n(c1=O)C[C@@H]1[C@@H](CO)[C@H](C(=O)NCC)N(C(=O)CC3CC3)[C@H]21 (mixture of isomers)
-4[16.7 µM],CNC[C@H]1OCCCC[C@@H](C)Oc2ccc(NS(=O)(=O)c3ccc(F)cc3)cc2C(=O)N([C@H](C)CO)C[C@H]1C
1[16.7 µM],C[C@H]1CN([C@@H](C)CO)C(=O)CCCn2cc(nn2)CO[C@H]1CN(C)C
8[16.7 µM],O=C(C[C@H]1C[C@@H]2c3cc(NC(=O)CC4CC4)ccc3O[C@@H]2[C@@H](CO)O1)NCC1CC1
-27,COCc1[nH]nc2c1C(c1cccc(C(F)(F)F)c1)N(c1ccccc1)C2=O (stereo not drawn)
-5[16.7 µM],CN(C)C(=O)[C@H]1[C@H](CO)[C@H]2Cn3c(ccc(C4=CCCC4)c3=O)[C@@H]1N2CC1CCOCC1

HIV Env fusion,canonical_smiles
28,COC(=O)C1=C(C)N(Cc2cccc(C(F)(F)F)c2)C(=NCc2ccc(C(F)(F)F)cc2)NC1c1cccc(C(F)(F)F)c1 (stereo not drawn)
-21,Cc1cc(Oc2cccnc2)ccc1NC(=O)Cc1c(C)[nH]c2ccccc12
-40,O=C(N[C@@H](Cc1cccnc1)C(=O)N1CCC[C@H]1C(=O)NCc1ccccc1)c1ccc(Cl)c(Cl)c1
13[16.7 µM],Cc1noc(C)c1S(=O)(=O)Nc1ccc2c(c1)C(=O)N([C@H](C)CO)C[C@@H](C)[C@H](CN(C)S(=O)(=O)c1ccc(F)cc1)O2
17,CCc1cc2c(nc1CC)CCCN2Cc1ccc(Br)cc1
3,COC(=O)C1=C(C)N(Cc2ccccc2C(F)(F)F)C(=NCc2cccc(C(F)(F)F)c2)NC1c1cccc(Cl)c1 (stereo not drawn)
9[16.7 µM],C[C@@H]1CCCCO[C@@H](CN(C)Cc2ccc(C(=O)O)cc2)[C@@H](C)CN([C@H](C)CO)C(=O)c2cc(N(C)C)ccc2O1
-28[16.7 µM],Cc1ccc(S(=O)(=O)N[C@@H]2CC[C@@H](CCNC(=O)c3ccccc3F)O[C@H]2CO)cc1

# Ten structures already listed, arranged by molar mass, highest first.
HIV Env fusion,canonical_smiles
28,COC(=O)C1=C(C)N(Cc2cccc(C(F)(F)F)c2)C(=NCc2ccc(C(F)(F)F)cc2)NC1c1cccc(C(F)(F)F)c1 (stereo not drawn)
9[16.7 µM],C[C@@H]1CCCCO[C@@H](CN(C)Cc2ccc(C(=O)O)cc2)[C@@H](C)CN([C@H](C)CO)C(=O)c2cc(N(C)C)ccc2O1
-40,O=C(N[C@@H](Cc1cccnc1)C(=O)N1CCC[C@H]1C(=O)NCc1ccccc1)c1ccc(Cl)c(Cl)c1
-28[16.7 µM],Cc1ccc(S(=O)(=O)N[C@@H]2CC[C@@H](CCNC(=O)c3ccccc3F)O[C@H]2CO)cc1
-5[16.7 µM],CN(C)C(=O)[C@H]1[C@H](CO)[C@H]2Cn3c(ccc(C4=CCCC4)c3=O)[C@@H]1N2CC1CCOCC1
8[16.7 µM],O=C(C[C@H]1C[C@@H]2c3cc(NC(=O)CC4CC4)ccc3O[C@@H]2[C@@H](CO)O1)NCC1CC1
-27,COCc1[nH]nc2c1C(c1cccc(C(F)(F)F)c1)N(c1ccccc1)C2=O (stereo not drawn)
-21,Cc1cc(Oc2cccnc2)ccc1NC(=O)Cc1c(C)[nH]c2ccccc12
17,CCc1cc2c(nc1CC)CCCN2Cc1ccc(Br)cc1
1[16.7 µM],C[C@H]1CN([C@@H](C)CO)C(=O)CCCn2cc(nn2)CO[C@H]1CN(C)C

# Remaining list, next part
HIV Env fusion,canonical_smiles
-46,C(=CCSc1ccccn1)CSc1ccccn1
22,C[C@@H]1C=CCCO[C@]12C(=O)N(Cc1ccc(Br)cc1)c1cccc(Br)c12
14[16.7 µM],CN1C(=O)c2cc(NC(=O)c3cnccn3)ccc2OC[C@H]2O[C@H](CC(=O)NCC3CCCCC3)CC[C@@H]21
1[16.7 µM],CO[C@H]1CN(C)C(=O)c2cccc(C#N)c2OCC[C@H]2CC[C@@H](OC)[C@H](CN(C)C(=O)[C@@H]1C)O2
14,OC(c1ccccc1)(c1ccccc1)C1CCN(CCCOc2cccc(Cl)c2)CC1
-8[16.7 µM],CO[C@@H]1CC[C@H]2CCOc3ccc(C#N)cc3C(=O)N(C)[C@H](C)C(=O)N(C)C[C@H]1O2
10[16.7 µM],CCCC(=O)Nc1ccc2c(c1)C(=O)N(C)C[C@H](OC)[C@@H](C)CN(C(=O)C1CCCC1)[C@@H](C)CO2
3[16.7 µM],COc1ccc(S(=O)(=O)Nc2ccc3c(c2)CC(=O)N([C@H](C)CO)C[C@@H](C)[C@@H](CN(C)Cc2ccc(C(=O)Nc4ccccc4N)cc2)O3)cc1

HIV Env fusion,canonical_smiles
17[16.7 µM],COC(=O)[C@H]1[C@H](CO)[C@H]2Cn3c(ccc(-c4ccccc4)c3=O)[C@H]2N1Cc1ccccn1
-1[16.7 µM],O=C(C[C@@H]1C[C@H]2c3cc(NC(=O)c4cccnc4)ccc3O[C@H]2[C@H](CO)O1)NC1CCCCC1
-7,CC(C)C[C@@H]1COc2cc(N3CCCC3)ccc2S(=O)(=O)N1
10[16.7 µM],CCCN(C)C[C@@H]1OCCCC[C@H](C)Oc2ccc(NC(=O)Nc3ccc4c(c3)OCO4)cc2C(=O)N([C@H](C)CO)C[C@@H]1C
-3[16.7 µM],CO[C@H]1CN(C)C(=O)c2cc(NC(=O)Nc3ccc(Cl)cc3)ccc2OC[C@H](C)N(C(=O)Nc2c(C)noc2C)C[C@H]1C
-4[16.7 µM],CNC[C@@H]1Oc2c(NS(=O)(=O)c3ccc(OC)cc3)cccc2C(=O)N([C@H](C)CO)C[C@@H]1C
1[16.7 µM],COc1cccc(CN(C)C[C@H]2OCc3cn(nn3)CCCC(=O)N([C@@H](C)CO)C[C@H]2C)c1

# Bioassay records deposited in PubChem BioAssay by Broad Institute.
